# VDR inhibitor: vitamin D3 receptor (human) inhibition; VDR-SRC2-3 peptide fluorescence polarization, 2 h; Potency, µM, without a hit: max response, negative = inhibition, hits mostly inhibitors; 400,000 compounds, 0.93% hits; active means well fitted inhibition curve with a large enough effect; inconclusive means small, poorly fitted or top-dose-only effect, or another doubt; inactive means no such curve, though single readings can be large or run the other way; further: series mostly up to about 120 µM
# Target sequence (P11473 whole entry, looked up): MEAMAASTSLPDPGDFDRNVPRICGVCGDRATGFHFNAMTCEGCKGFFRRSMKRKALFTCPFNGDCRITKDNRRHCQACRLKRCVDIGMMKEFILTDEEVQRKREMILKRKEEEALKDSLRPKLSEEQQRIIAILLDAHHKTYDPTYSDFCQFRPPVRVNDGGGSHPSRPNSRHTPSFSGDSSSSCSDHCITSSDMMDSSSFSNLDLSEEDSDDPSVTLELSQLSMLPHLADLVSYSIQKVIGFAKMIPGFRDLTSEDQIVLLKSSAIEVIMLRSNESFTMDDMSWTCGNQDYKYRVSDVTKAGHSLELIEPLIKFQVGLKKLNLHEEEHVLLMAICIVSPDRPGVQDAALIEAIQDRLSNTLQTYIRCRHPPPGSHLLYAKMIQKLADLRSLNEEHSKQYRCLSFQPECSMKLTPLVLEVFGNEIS
#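 Inhibition of the VDR/SRC2-3 peptide interaction is quantified by fluorescence polarization. Compounds (23 nl, pintool) incubate with the reagents for 2 hours at ambient room temperature.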
# Numbers without * were called inactive; ? = inconclusive; & = joins results of further samples. On the % scale 0 is the no-effect control and ±100 the full control effect; potency means the concentration at half of the fitted maximal effect. Not all compounds are listed; count on the stated rates, not on these rows.
SMILES,VDR inhibitor
Cc1c(C(=O)N2CCN(C)CC2)oc2ccc(Br)cc12,-3%
Cc1cccc(NC(=O)Cn2cc(C(=O)C3CC3)c3ccccc32)c1,-22%
O=C(Nc1nccs1)OCc1ccccc1,0%
Cc1cc(N2CCN(C)CC2)nc2ccc(NC(=O)CCC(=O)NCCC(C)C)cc12,6%
Cc1ccc(O)c(C=Nc2ccc3[nH]ncc3c2)c1,-11%
Cc1ccc(SCC(=O)Nc2ccc3oc(-c4ccccc4C)nc3c2)cc1,4%
Cc1onc(-c2ccccc2)c1C(=O)Nc1nnc(C(C)(C)C)s1,-25%
CC1=C(c2ccc(C)cc2)S(=O)(=O)N(Cc2ccc(C(=O)NCc3cccc(C)c3)cc2)C1=O,8%
Cc1cc(Oc2ccc(N)cn2)ccc1Cl,-22%
C=CCOc1ccc(C2NC(=S)NC(C)=C2C(=O)c2ccccc2)cc1OC (configuration not stated),-15%
C/C(=C\c1ccc(F)cc1)C(=O)c1c(C)cc(C)[nH]c1=O,5%
Cc1ccc(NC(=O)C(C)Oc2ccccc2)cc1S(=O)(=O)N1CCCCCC1 (configuration not stated),3%
O=C1NC2=C(CCc3ccccc32)C(c2ccc(Br)cc2)N1 (configuration not stated),-12%
Nc1nc(SCC(=O)Nc2ccc(Oc3ccccc3)cc2)n[nH]1,-2%
Cc1ccc(NC(=O)CCNS(=O)(=O)c2ccc3c(c2)CCCC(=O)N3)cc1,10%
O=C(Nc1ccccc1C(=O)O)c1cncc(Br)c1,8%
Cc1cccc(C)c1Nc1nnc(SCc2nc3ccccc3c(=O)[nH]2)s1,-3%
COC(=O)[C@@H]1C[C@@]2(O)[C@H](O)[C@H](O)[C@H](O)C[C@H]2N1CC1CC1,-10%
CC1CCN(c2ccc(S(=O)(=O)Nc3cc(C(=O)O)cc(C(=O)O)c3)cc2[N+](=O)[O-])CC1,-1%
O=C(Nc1nccs1)c1cc(S(=O)(=O)N2CCOCC2)ccc1Cl,19%
FC(F)(F)c1ccccc1-c1cncnc1NCc1ccccc1,?
CCOc1cc(C(=O)OCC(=O)c2c(N)n(C)c(=O)n(C)c2=O)cc(OCC)c1OCC,5%
CSc1ccccc1NC(=S)Nc1ccc(S(N)(=O)=O)cc1,-13%
CCSc1ncc(Cl)c(C(=O)N(Cc2ccccc2)c2ccc(OC)cc2)n1,0%
C=CCN(c1ccccc1)S(=O)(=O)c1cccc(C(=O)NC2CCN(Cc3ccccc3)CC2)c1,-16%
Cc1c(Nc2ncccc2C(=O)O)cccc1C(F)(F)F,-10%&-16%&3%
CCNC(=O)[C@@H]1CCCN1C(=O)[C@H](CCCN=C(N)N)NC(=O)[C@H](CC(C)C)NC(=O)[C@@H](Cc1c[nH]c2ccccc12)NC(=O)[C@H](Cc1ccc(O)cc1)NC(=O)[C@H](CO)NC(=O)[C@H](Cc1c[nH]c2ccccc12)NC(=O)[C@H](Cc1cnc[nH]1)NC(=O)[C@@H]1CCC(=O)N1,?
Cc1ncoc1C(=O)N1CCCC(C(=O)c2cccc(OC(C)C)c2)C1 (configuration not stated),-6%
FC(F)(F)c1ccc(Cl)c(NC(=S)NC2CC2)c1,-7%
CCCCC1(CCCC)NC(=S)N(Nc2ccc(C)cc2)C1=O,-3%
Cc1cc(C)nc(SCC(=O)Nc2ncc3c(n2)CCCC3=O)n1,-14%
COc1ccc2sc(-c3ccc(S(C)(=O)=O)cc3)c(C(=O)NCCc3c[nH]c4ccccc34)c2c1,9%
CC(=O)O[C@H]1C[C@@]2(C)[C@H](C[C@@H](O)[C@H]3[C@@]4(C)CC[C@@H](O)[C@@H](C)[C@H]4CC[C@@]32C)C1=C(CCC=C(C)C)C(=O)O,-1%
O=C(c1cnccn1)N1CCC[C@@]2(CCN(c3ccccn3)C2)C1,1%
Cc1ccc(C(=O)Nc2nc(-c3ccccc3)ns2)cc1,3%
O=C(Cn1ncc(N2CCOCC2)c(Cl)c1=O)c1ccc(Cl)cc1,9%
CCCc1cc(CNC(=O)C2CCC(=O)N(Cc3ccccc3F)C2)on1 (configuration not stated),24%
O=C(NCc1cccnc1)c1cccn2c(=O)c3sccc3nc12,-19%
CC(=O)O[C@H]1CC[C@@]2(C)C(CCC3C2CC[C@]2(C)OC(=O)CCC32)C1 (some centres not stated),20%
CC(=O)c1ccc(NC(=O)c2nc(-c3ccc(C)cc3)n3c2CCCCC3)cc1,-2%
O=C(NC1CCCCC1)N1CCc2ccccc2C1,-16%
COc1ccc(CNC(=O)C/C(C)=N/NC(=O)Cc2ccc(OC)c(OC)c2)cc1,1%
Cc1cc(C(=O)NC(=S)Nc2ccccc2N2CCOCC2)ccc1[N+](=O)[O-],2%
CC(C)(C)c1ccc(C(=O)Nc2ccc(C(=O)NCc3cccnc3)cc2)cc1,-14%
C=CCOc1ccc(/C(CC)=N/O)c(OC)c1,-3%
CC(=O)N1CCc2cc([N+](=O)[O-])ccc21,-7%
O=C(NCc1ccco1)c1cc(-c2ccccc2)nc2ccccc12,-2%
Cc1c(NC(=O)OCCNC(=O)COc2ccc(Cl)cc2Cl)sc(=S)n1C,-12%
COC(=O)c1ccc(CN2CCN(C3CCCC3)C(CCO)C2)cc1 (configuration not stated),-18%
O=[N+]([O-])c1ccc(NN=C2CCCCC2)c([N+](=O)[O-])c1,-10%
# (continued)
SMILES,VDR inhibitor
O=C(OCc1ccccc1)N1CCC2CC1c1cc(N3CCOCC3)ccc12 (configuration not stated),-7%
COC(=O)COc1ccc(S(=O)(=O)N2CCN(c3ccccc3F)CC2)cc1C,-1%
Cc1ccc(OCC(O)CNC(=O)c2ccccc2C(=O)O)cc1 (configuration not stated),7%
N#Cc1c(NC(=O)/C=C/C(=O)O)sc2c1CCN(Cc1ccccc1)C2,-4%
Cc1ccc(S(=O)(=O)c2cn(C)c3cc(N4CCCC4)c(F)cc3c2=O)c(C)c1,14%
Cc1cccc(OCC(=O)Nc2ccc(N3CCN(C(=O)c4ccccc4)CC3)cc2)c1C,8%
Cc1ccccc1CC(=O)NCCN1CCCCC1,-7%
Cc1ccccc1NC(=O)c1cnn(-c2ccccc2)c1NC(=O)c1ccco1,8%
CCN(CC)c1ccc(Nc2cc3n(c(=O)n2)CCc2cc(OC)c(OC)cc2-3)cc1,-6%
Cc1ccc(Nc2ncnc3sccc23)c(C)c1,25%
Cc1ccc(S(=O)(=O)N2CCCC2CNC(=O)c2ccc(F)c(F)c2)cc1 (configuration not stated),4%
CCN(c1ccccc1C)S(=O)(=O)c1cc2c3c(c1)CCN3C(=O)CC2,-5%
COC(=O)C(CC(=O)c1ccc(C)cc1)n1nc(C)cc1C (configuration not stated),-14%
CC1(C)C[C@@H]2C(=O)CCC3O[C@@]3(C)CCC21 (some centres not stated),16%
CCc1ccc(OCC(=O)NNC(=O)CNC(=O)c2ccc(Br)o2)cc1,5%
O=C(Nc1ccc(N2CCOCC2)cc1)C1CC(=O)N(c2ccccc2)C1 (configuration not stated),-8%
COc1ccc(CCNC(=O)CN2C(=O)c3cccc4cccc(c34)C2=O)cc1OC,-3%
COc1cc2c(cc1OC)CN(Cc1ccccc1)CC2,7%
COc1cccc(N(C(=O)CS(=O)CC(=O)Nc2ccc(F)cc2)C(C(=O)NC2CCCCC2)c2cccs2)c1 (configuration not stated),-8%
Cc1nc2ccccc2n1S(=O)(=O)c1ccc(F)cc1,13%
Cc1ccccc1C=O,16%
CCOC(=O)CSc1nnc([C@@H](NC(=O)OC(C)(C)C)C(C)C)o1,?
COc1cc(/C=N/NC(=O)C2CCN(CC(O)COCc3ccccc3)CC2)ccc1O (configuration not stated),8%
O=C(NCC(c1cccnc1)N1CCN(Cc2ccccc2)CC1)C(=O)Nc1cccc(Cl)c1 (configuration not stated),8%
CCOC(=O)N1CCN(C(=O)c2ccc3c(c2)ncn3C2CCCC2)CC1,5%
O=C(N/N=C/c1ccc(F)cc1)c1ccc(-n2cnnn2)cc1,13%
O=C(C1=C[C@H](C2CCCCC2)C[C@H](OCCCCO)O1)N1CCN(Cc2ccc3c(c2)OCO3)CC1,-1%
COC(=O)[C@H](CC(C)C)NC(=O)N1CCCCC1,2%
CCc1c(C(=O)NCCc2cccc(C)c2)[nH]c(C)c1C(C)=O,-7%
Cc1ccc2nc3c(cc(C#N)c(=O)n3-c3nnc(SCc4ccccc4)s3)c(=O)n2c1,17%
CCOc1ccc(CN(C)C(C)C(=O)NCCc2ccc(F)cc2)cc1 (configuration not stated),0%
CC(C)(C)c1ccc(C(=O)CSc2nc3ccccc3c(=O)[nH]2)cc1,-11%
Cc1ccc2c(c1)c1c(n2CC(O)CNC2CCCCC2)CCCC1 (configuration not stated),-2%
O=C(Nc1cccc(Cl)c1)OCc1ccccn1,-10%
O=C(CCCc1ccccc1)NC1CC(=O)N(c2ccc(Cl)cc2)C1 (configuration not stated),8%
Cc1ccc(C(=O)OCC(=O)N(Cc2ccccc2)C(C)C)cc1C,-7%
Cc1ccc(S(=O)(=O)Nc2ccc(OCC(=O)N3CCOCC3)cc2)c(C)c1NS(C)(=O)=O,16%
Cc1ccc(C)c(Cn2c(=O)n(Cc3ccccc3)c(=O)c3c2c2cc(C)ccc2n3C)c1,5%
O=C(COc1ccccc1[N+](=O)[O-])N/N=C/c1ccc(OC(=O)c2ccco2)cc1,-4%
COc1cc2c(=O)n(Cc3ccccc3)c(=O)n(CC(=O)NCCc3ccccc3)c2cc1OC,-4%
O=C(Cc1ccc(O)cc1)N/N=C/c1cccnc1,-4%
CCOC(=O)C1CCN(c2c(NCCCN(CC)c3ccccc3)c(=O)c2=O)CC1,0%
Cc1ccc(C)c(N2CCN(C(=O)Cc3c(C(=O)O)[nH]c4ccc(Cl)cc34)CC2)c1,-7%
O=C(CSc1nc2ccccc2n1CC(=O)N1CCCC1)NCc1ccc2c(c1)OCO2,20%
CN(CC(=O)Nc1ccc(N2CCOCC2)cc1)CC(=O)Nc1ccc(N2CCOCC2)cc1,-4%
O=S(NC1CCCCC1)C12CC3CC(CC(C3)C1)C2 (configuration not stated),-13%
O=C(Nc1ccncc1)c1ccc2ncsc2c1,-6%
COc1ccc(NS(=O)(=O)c2ccc3c(c2)CCN3C(=O)CCC(=O)O)cc1OC,-15%
C#CCOc1nc(C)cc(C)c1S(=O)(=O)c1ccccc1C,-1%
CCOC(=O)c1sc(C)c2c(=O)n(Cc3ccc(Cl)cc3)cnc12,-6%
# Additional compounds:
SMILES,VDR inhibitor
CS(=O)(=O)N1CCN(C(=O)c2cc(-c3ccncc3)nc3ccc(Cl)cc23)CC1,-6%
CCOC(=O)c1c(-c2ccc(OC)cc2)oc2ccc(OCc3ccc(Br)cc3)cc12,-22%
CC(=O)c1cccc(NC(=O)c2cc3sc(Cl)cc3n2C)c1,-8%
Cc1ccc(-n2c(-c3c(-c4ccccc4)noc3C)n[nH]c2=S)cc1,-13%
O=C(COC(=O)c1cc(=O)[nH]c(=O)[nH]1)NCc1ccccc1,6%
O=C(Nc1ccccc1F)c1ccc(CN2CCN(c3ccccc3)CC2)cc1,-12%
c1ccc(-c2ccc(-c3ccccn3)s2)nc1,-10%
C=CC[C@@H](CC(=O)N(CCO)Cc1ccccc1)C(=O)N[C@H](COC(=O)[C@@H](CC=C)CC(=O)OC(C)(C)C)Cc1c[nH]c2ccccc12,7%
COc1ccc(Cl)cc1NC(=O)Cn1c(=O)n(Cc2ccco2)c(=O)c2ccc(C(=O)NC3CCCC3)cc21,-15%
Nc1nonc1-n1nnc(C(=O)N/N=C/c2ccccc2)c1CSc1ccc(Cl)cc1,-14%
Cc1cccc(C(=O)NCN2CCN(c3ccccc3C#N)CC2)c1,-5%&-4%
Cc1ccc(C)c(CN2C(=O)c3ccccc3S(=O)(=O)c3ccc(C(=O)OCC4CCCO4)cc32)c1 (configuration not stated),4%
CC[C@]12c3[nH]c4cc(CCC(=O)N(C)C)ccc4c3CCN1C(=O)[C@@H](CC(=O)NCCCOC)C[C@@H]2C(=O)N1CCN(C(=O)c2ccco2)CC1,-7%
Cc1ccc(N2CC(NC(=O)c3cc4ccccc4o3)CC2=O)cc1 (configuration not stated),11%
O=C(NCCc1ccc(Cl)cc1)C1CCC(=O)N1Cc1ccc(F)cc1 (configuration not stated),-21%
O=C(NC1CC(=O)N(c2ccccc2)C1)C1CCCCC1 (configuration not stated),9%
CCOC(=O)c1ccc(NC(=S)Nc2ccc3[nH]c(=O)[nH]c3c2)cc1,0%
COc1cc(COc2ccc3c(C)c(CCC(=O)O)c(=O)oc3c2)cc(OC)c1OC,?
Cc1cc(C(=O)CC#N)c(C)n1-c1c(C)n(C)n(-c2ccccc2)c1=O,-28%
COc1ccc(CCC(N)=O)cc1OC,-15%
c1cc(-c2nn[nH]n2)ccc1CN1CCCCC1,0%
Cc1nnc(N(C)C(=O)c2ccc3c(c2)OCO3)s1,2%

# Assay outcomes from PubChem BioAssay.
